# Rce1 inhib: yeast Ras-converting enzyme inhibition | Q03530 | yeast membranes, quenched prenylated peptide cleavage fluorescence | calls only | 290,000 compounds, 0.27% hits | AID 2563;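 active means fall in fluorescence gain of 50% or more versus controls, with final raw signal at or below 3038400; inconclusive means same 50% fall but final raw signal above 3038400; inactive means fall in fluorescence gain under 50%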;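 further: plate controls were neutral control wells for no effect and wells lacking membranes for full effect; tested at 10 µM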
# Target sequence (Q03530 whole entry, looked up): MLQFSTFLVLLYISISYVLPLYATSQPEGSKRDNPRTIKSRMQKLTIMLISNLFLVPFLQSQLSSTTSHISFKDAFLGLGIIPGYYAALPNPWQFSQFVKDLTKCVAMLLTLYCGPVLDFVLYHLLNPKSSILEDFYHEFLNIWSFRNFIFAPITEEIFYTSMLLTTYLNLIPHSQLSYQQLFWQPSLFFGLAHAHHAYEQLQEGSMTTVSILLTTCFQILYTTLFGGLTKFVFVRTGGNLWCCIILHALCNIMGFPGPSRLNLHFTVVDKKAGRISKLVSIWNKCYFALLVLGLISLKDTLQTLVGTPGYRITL
# MT1-MMP act inh: blocks activation of human MT1-MMP. 360,000 compounds, 0.061% hits. GFP/RFP ratio change, % at 20 µM. AID 651647. HT1080 RFP-PRO-GFP cells, GFP/RFP ratio fluorescence, overnight; percent of plate control window, DMSO zero. P50281;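 active means GFP/RFP ratio change of at least 30% with cell ATP level not reduced by more than half and red fluorescence within 50% of control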; further: strong numbers were not always called active
#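 system = RFP-PRO-GFP reporter HT1080 cells | dosing = 20 µM single dose, 1% DMSO | timing = overnight cell settling, then overnight compound exposure, 37 °C, 5% CO2 | read-out basis = GFP/RFP fluorescence ratio | controls = DMSO and RFP-L50D-GFP cell wells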
# eIF4H FP inh: inhibitors of RNA binding by human eIF4H | Q15056 | eIF4H fluorescence polarization binding assay | inhibition, % at 35 µM | 290,000 compounds, 0.94% hits | AID 2012;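 active means 50% or more with normal probe brightness, or confirmed in later tests; inconclusive means above 50% with abnormal brightness, or retests that disagree; inactive means below 50% or failed in later tests; about a fifth of its hits are not listed in these tables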;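 further: calls also rest on retests at 20 µM and on dose response follow-up; 0% = protein and probe with vehicle and 100% = probe without protein; strong numbers were not always called active; many hits fall short of the cut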
# UUG fidelity: alters start codon recognition fidelity in yeast. S. cerevisiae UUG-firefly luciferase reporter, luminescence/redox ratio. activity score, % at 18.7 µM. 350,000 compounds, 0.13% hits;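 active means replicate mean at a twofold rise or more, about +100% in these data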;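 further: firefly luciferase made from a UUG start codon reports start codon fidelity; reporter light over untreated wells divided by growth signal over untreated wells; some hits fall short of that in this replicate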
# CSC inhib: cancer stem cell inhibition. cancer stem cell-like cells viability, luminescence. 300,000 compounds, 1.1% hits. AID 2717. inhibition, % at 7.5 µM;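 active means mean at 75% or more and at least half the replicates too; inconclusive means mean and replicates disagree; tested in HMLE shEcad cells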;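 further: 0% = median of negative and 100% = median of positive control wells; the first replicate is given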
# Env fusion inh: HIV envelope-mediated fusion inhibition. HeLa-JRFL Env/CEM21 cell fusion, luciferase. inhibition, % at 12.3 µM. 360,000 compounds, 1.1% hits. AID 651610;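 active means mean replicate inhibition score of at least 50 and every replicate individually at or above 50; inconclusive means only one of the two criteria met; inactive means mean below 50 and not all replicates reaching 50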;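 further: 0% = plate neutral controls and 100% = maraviroc near 300 nM; one replicate is shown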
# PABP FP inh: PABP-poly(A) binding inhibition; P11940; PABP-poly(A) RNA binding, fluorescence polarization; inhibition, % at 35 µM; 290,000 compounds, 1% hits; AID 2014;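 active means 50% or more with normal probe brightness, or confirmed in later tests; inconclusive means above 50% with abnormal brightness, or retests that disagree; inactive means below 50% or failed in later tests; about a fifth of its hits are not listed in these tables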;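 further: calls also rest on retests at 20 µM and on dose response follow-up; controls were probe without protein and protein plus probe with vehicle; some compounds called inactive have numbers as strong as hits; many hits fall short of the cut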
# Target sequence (P11940 whole entry, looked up): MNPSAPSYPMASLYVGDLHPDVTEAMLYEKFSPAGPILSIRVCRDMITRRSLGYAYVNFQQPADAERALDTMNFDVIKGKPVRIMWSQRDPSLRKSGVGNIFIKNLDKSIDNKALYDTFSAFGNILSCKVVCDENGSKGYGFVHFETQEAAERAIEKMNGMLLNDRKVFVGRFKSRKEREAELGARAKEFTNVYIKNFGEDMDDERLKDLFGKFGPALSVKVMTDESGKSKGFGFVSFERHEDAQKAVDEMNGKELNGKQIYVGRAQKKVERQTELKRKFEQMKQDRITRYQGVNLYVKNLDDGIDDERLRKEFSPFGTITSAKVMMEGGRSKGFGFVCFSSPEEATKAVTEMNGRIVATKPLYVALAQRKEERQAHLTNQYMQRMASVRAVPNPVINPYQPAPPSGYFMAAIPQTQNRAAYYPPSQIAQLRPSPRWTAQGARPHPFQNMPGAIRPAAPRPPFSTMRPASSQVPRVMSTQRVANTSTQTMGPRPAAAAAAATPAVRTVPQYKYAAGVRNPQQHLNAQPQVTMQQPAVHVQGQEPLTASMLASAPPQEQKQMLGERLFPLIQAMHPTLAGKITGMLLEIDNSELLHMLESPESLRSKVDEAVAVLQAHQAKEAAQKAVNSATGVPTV
# eIF4H FP inh retest: further read-out of eIF4H FP inh, marked with its call; inhibition, %; compound at 20 µM; confirmation average;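 mean of two retest wells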
# PABP FP inh retest: also measured in PABP FP inh; calls as there; inhibition, %; compound at 20 µM; confirmation repeats;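 mean of two retest wells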
# MT1-MMP act inh RFP: also measured in MT1-MMP act inh; calls as there; RFP signal change, %; measured here: RFP expression control read;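 0 = vehicle wells; hits needed this value within 50% of zero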
# Numbers without * were called inactive; i = inactive; ? = inconclusive; / = no result given. Not all compounds are listed; rates above refer to the full screens.
SMILES,Rce1 inhib,MT1-MMP act inh,MT1-MMP act inh RFP,eIF4H FP inh,UUG fidelity,CSC inhib,Env fusion inh,PABP FP inh,others
OCCNCc1cccc(-c2ccccc2)c1O,/,0,3,/,-9,/,11,/,
COC(=O)c1ccc(NC(=O)CSc2nc(=O)cc(N)n2-c2ccccc2)cc1,i,-3,-1,4,/,-12,15,6,
COc1cccc(C2=CC(=O)CC(c3ccco3)C2)c1 (configuration not stated),i,-10,2,/,2,-7,-19,/,
Cc1c(NC(=O)c2ccc(N(Cc3ccccc3)S(C)(=O)=O)cc2)c(=O)n(-c2ccccc2)n1C,i,2,6,-12,15,1,-23,-2,
COc1ccc(CCNCc2csc3nc4ccccc4n23)cc1OC,i,0,-26,0,-16,7,/,42,
CC(C)C(=O)NCc1cc(-c2ccc(Cl)cc2)no1,i,2,1,-12,/,-2,-9,23,
CCOC(=O)c1cnc2ccc(OC)cc2c1NCCc1ccc(OC)c(OC)c1,i,-4,-23,10,/,-13,33,-9,
O=C(c1n[nH]c2c1CCCC2)n1ccnc1,i,/,/,8,/,11,/,69,eIF4H FP inh retest=2;PABP FP inh retest=7
COc1ccccc1CNC(=O)COC(=O)CCN=C1NS(=O)(=O)c2ccccc21,i,1,3,/,0,-3,-3,/,
COc1ccc(C)cc1S(=O)(=O)N1CCN(C(=O)c2ncoc2-c2ccccc2F)CC1,i,-2,3,-3,7,1,6,-10,
CC(=O)Nc1nc(=S)ss1,i,2,8,-8,-7,-7,/,8,
S=C(NCCc1ccccn1)Nc1ccccc1Cl,i,4,-5,-2,-24,6,1,-1,
O=C(COc1ccc(Br)cc1)Nc1ccncc1,i,2,-7,2,-20,-10,/,-2,
Cc1ccc(C(=O)NCc2ccccn2)c(Cl)c1,i,-2,5,4,/,-9,/,-7,
CC(C)Oc1ccc(CC2CCC(=O)N(C)C2=O)cc1 (configuration not stated),i,0,-3,0,-14,-4,-11,5,
C/C(=N\NC(=O)COc1ccc(C)cc1[N+](=O)[O-])c1cccs1,i,11,-1,-8,/,-17,-18,-3,
NC(=O)c1nsc(C(=O)N(c2cccc(F)c2)C(C(=O)NCC2CCCO2)c2c[nH]c3ccccc23)c1N (configuration not stated),i,-7,3,-3,-11,-11,2,2,
COc1cc(/C=C(/C#N)c2ccccc2)ccc1Oc1ccc([N+](=O)[O-])cn1,i,0,-18,5,-15,34,?,1,
C/C(=N\Nc1nccnc1Cl)c1ccc(Cl)c(Cl)c1,i,1,2,-8,-6,-3,-18,1,
COc1cc2c(c(OC)c1OC)C(=O)C(=Cc1ccccc1)O2,/,7,-5,/,0,/,1,/,
O=C(CN1C(=O)COc2ccccc21)N1CCc2ccccc21,i,3,-1,84,-1,0,-35,-5,eIF4H FP inh retest=0;PABP FP inh retest=0
COc1ccc(-c2nn(-c3ccccc3)cc2/C=N/N=C(N)N)cc1OC,i,-16,-24,-5,/,-3,-54,-6,
COc1ccc(N(C(=O)c2snc(C(N)=O)c2N)C(C(=O)NCc2ccccc2)c2ccc(O)cc2)cc1OC (configuration not stated),i,0,-2,-17,2,/,-19,6,
C/C(=N/Nc1ccccc1[N+](=O)[O-])c1ccc([N+](=O)[O-])cc1,i,4,-1,-4,-15,3,2,3,
Cc1ccc(NS(=O)(=O)c2cccc(C(=O)N/N=C/c3ccc4c(c3)OCCO4)c2)c(C)c1,i,0,3,0,/,0,-4,-2,
CCN(CC(=O)Nc1ccc2c(c1)OCCO2)C(=O)c1cc(S(=O)(=O)N2CCOCC2)ccc1F,/,-7,0,/,0,/,6,/,
O=C1C2CC(O)CN2C(=S)N1Cc1ccccc1 (configuration not stated),i,4,1,2,-21,7,12,2,
O=C(c1ccc(NC2=NC3CS(=O)(=O)CC3S2)cc1)N1CCN(c2ccc(F)cc2)CC1 (configuration not stated),i,-1,4,-4,-28,-9,/,1,
N#CCCn1cc(C(N)=O)c(-c2cccs2)n1,i,0,2,-15,-13,/,-11,-3,
Fc1ccccc1COc1ccc(Br)cc1CNCc1ccncc1,i,-32,-32,1,-29,12,/,11,
COC(=O)c1ccccc1NC(=O)CSc1nnc(-c2ccncc2)o1,i,1,2,0,-9,11,/,-14,
C=CCOC(=O)C1=C[C@@H](c2cn(C(C)=O)c3ccccc23)C[C@@H](OCCCCO)O1,i,-2,0,8,-5,-18,-24,2,
O=C(Nc1nnc(CCOCCOCCc2nnc(NC(=O)c3ccco3)s2)s1)c1ccco1,i,5,4,-7,/,-7,/,10,
Cc1ccc(C(Sc2ccccc2)C(Cn2cncn2)C(=O)c2ccccc2)cc1 (configuration not stated),i,-11,-13,2,-5,8,/,12,
Nc1c(C(=O)NCc2ccco2)sc2nc(N3CCOCC3)c3c(c12)CCCC3,i,-6,-6,0,16,-1,-21,14,
O=C(CSc1n[nH]c(-c2ccccc2)n1)NC1CCCCC1,i,2,0,2,-6,0,-2,1,
COc1cc(/C=N/NS(=O)(=O)c2ccc3ccccc3c2)ccc1OCCN1CCOCC1,i,6,6,-5,-2,/,-11,-10,
Cc1cccc(Nc2ccccc2C(=O)O)c1C,i,2,5,5,-5,/,-4,-8,
Cc1cccc2c3c([nH]c12)CCNC3,i,-3,6,3,1,-7,5,11,
CCOC(=O)C(=CNc1ccc(Oc2cccnc2)nc1)C(=O)OCC,i,-3,0,12,/,-12,7,7,
CCOc1cc(CNCCc2ccc(S(N)(=O)=O)cc2)ccc1OCC(=O)NC(C)(C)C,i,-5,-3,1,-2,-4,/,-3,
O=C(NC1CC1)c1cc(Cl)nc2ccccc12,/,-1,2,/,-20,/,-1,/,
CC(OC(=O)c1nsc(Cl)c1Cl)C(=O)NC1CCCCC1 (configuration not stated),i,1,2,4,-3,-7,6,8,
CCOc1cc(N2CCOCC2)c(OCC)cc1NC(=O)C1CC(=O)N(c2ccccc2OCC)C1 (configuration not stated),/,8,4,/,1,5,/,/,
CCC1(C)COC(C)(CC(=O)NNC(=O)Nc2ccccc2)OC1 (configuration not stated),i,-3,-3,3,/,7,-9,0,
O=c1nc(N2CCCCCC2)nc(N2CCCCCC2)[nH]1,i,4,2,?,-5,-8,-14,?,
Cc1cc(NC(=O)CCC(=O)N(Cc2ccco2)C(C(=O)NC2CCCC2)c2ccccc2F)no1 (configuration not stated),i,-2,1,-4,0,/,0,-2,
Cc1nc2c(-c3ccccc3)c(C)nn2c(N)c1-c1ccccc1,i,-1,-2,-8,/,25,/,-9,
COCCN1CC(C(=O)N2CCC(Oc3ccccc3OC)CC2)CCC1=O (configuration not stated),i,-1,4,-3,14,-4,-25,8,
O=C(CCCC(=O)Nc1cccc(Br)c1)N/N=C/c1cc([N+](=O)[O-])ccc1O,i,-6,-5,3,-4,-7,4,4,
CC(=O)Nc1ccc(C(=O)OCC(=O)c2ccc(F)cc2)cc1,i,-1,0,0,/,1,5,8,
Cc1ccc(N(c2ncnc(N)c2[N+](=O)[O-])C2CCCCC2)cc1,i,-2,-8,-10,-20,-6,25,-3,
N#Cc1ccccc1CSc1nc(N)cc(N)n1,i,0,4,-8,8,-5,-43,1,
CC1=CC(C)(C)N2C(=O)C3(C(C#N)=C(N)Oc4cc(C)oc(=O)c43)c3cc(C)cc1c32 (configuration not stated),i,2,2,/,-9,1,-25,/,
O=C(Nc1ccc(Cl)cc1)N1CC=CCC1,i,0,2,-5,-10,-5,/,-6,
CCCCN(CCO)CCCC,/,2,6,/,17,-12,/,/,
Cc1nc2c(Cl)c(C)nn2c2c1CCC2,i,-3,-4,-14,-8,-8,-3,42,
C=CCNC(=O)c1ccccc1NC(=O)c1ccccc1SC,i,-2,1,4,/,2,5,2,
Cc1nn(-c2ccccc2)c(Cl)c1/C=N/Nc1nnc(C)c(=O)[nH]1,i,-1,2,4,/,4,-20,1,
Cn1c(=O)n(C)c2cc3[nH]cnc3cc21,i,6,7,-1,-9,-3,7,-2,

# Remaining list, next part
SMILES,Rce1 inhib,MT1-MMP act inh,MT1-MMP act inh RFP,eIF4H FP inh,UUG fidelity,CSC inhib,Env fusion inh,PABP FP inh,others
COc1ccc(CC(=O)OCC(=O)Nc2ccc(Cl)c(S(=O)(=O)N(C)C)c2)cc1,i,-3,1,-7,/,1,11,-2,
COc1ccc(CCNC(=O)COc2cc(O)c3c(c2)OC(C)(C)CC3=O)cc1,i,1,0,-8,11,-6,/,-4,
COC(=O)c1ccc(C(=S)N2CCCCC2)cc1,i,5,12,-7,-21,-5,3,-6,
Cn1sc(=O)c2cc(S(=O)(=O)NC3CC3)ccc21,i,-3,-2,-2,-8,19,-6,7,
COc1cccc(CNC(=O)CSc2nc(=O)n(Cc3ccncc3)c3c2CCC3)c1,i,-1,0,/,-18,-4,3,/,
CC1(C)CC(NC(=O)c2sc3cc(Cl)ccc3c2Cl)CC(C)(C)N1,i,-2,-3,-5,/,49,13,-7,
O=C(NC1=NCCS1)C12CC3CC(CC(C3)C1)C2,i,1,-2,-6,/,6,10,-7,
CCNC(=S)N/N=C(\C)c1cccc(C(F)(F)F)c1,i,-3,1,-1,/,-9,10,9,
COc1ccc(OCc2nnc3n2N=C(c2ccc(Br)cc2)CS3)cc1,i,-1,-3,0,-8,/,-10,12,
COCC(=O)N(Cc1ccco1)c1nnc(C2CCOC2)s1 (configuration not stated),i,6,9,-11,-13,3,/,-6,
CC(C)(C)OC(=O)N[C@@H](C(=O)OC(C)(C)C)c1ccc2ccccc2c1,/,-1,-2,/,-3,8,18,/,
Cc1c(C)n(Cc2ccccc2)c2ncnc(NN)c12,i,4,-10,-2,2,16,-6,2,
O=C(CN1CCCC1)Nc1cccc(Cl)c1Cl,i,-5,-1,2,-18,3,10,3,
Nc1nc2ccc(C(=O)N3CCCCC3)cc2s1,i,1,2,0,-4,-13,-2,-7,
COc1ccc(CCNC(=O)C/C(C)=N/NC(=O)Cc2cccc3ccccc23)cc1OC,/,0,6,-1,/,2,15,-4,
O=C(CCN1C(=O)c2ccncc2C1=O)Nc1cc(F)ccc1F,i,-1,1,-4,-11,-3,-24,-12,
COc1ccccc1N(C)S(=O)(=O)c1ccc(C(=O)NCC(C)C)cc1,i,10,-3,4,6,-9,-111,-10,
COCCC(=O)N1CCC(Oc2ccc(C(=O)NCCCC3CCCC3)cc2)CC1,i,-2,-16,4,3,26,-11,-2,
Cc1ncc(CN2CCCC(C(=O)Nc3ccc(-c4cccc(F)c4)cc3)C2)n1C (configuration not stated),i,1,-3,-22,-19,-8,25,0,
COc1ccc(CC(=O)NNS(=O)(=O)c2ccccc2[N+](=O)[O-])cc1OC,i,0,-1,-1,-7,/,2,-5,
Cc1ccccc1-n1nc2c(c1NC(=O)C1CC1)CS(=O)(=O)C2,/,2,1,/,-10,/,-5,/,
Cc1ccc([C@@H]2CC(=O)[C@@H]3CN(S(=O)(=O)c4ccc(C)cc4)[C@H](c4ccccc4)C[C@@H]3N2S(=O)(=O)c2ccc(Cl)cc2)cc1,/,-1,-1,/,-3,/,-47,/,
O=C(CNC(=O)c1cccs1)N=Nc1c(O)[nH]c2ccc([N+](=O)[O-])cc12,i,0,2,12,-1,-10,-19,18,

# Screens as filed in PubChem BioAssay.
